Compound activity: PubChem, several laboratories
Sa ugtP lethal = compounds lethal to S. aureus RN4220 ugtP deletion mutant; actives 0.54% (n = 330,000); OD600 growth, 16 h; some inactives read as strong as hits; growth inhibition, % (test concentration not listed); AID 1259309;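 active = z-score under -3 and OD600 up to 0.15 on both plates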;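 also: plate controls were untreated wells for no effect and antibiotic for full effect; wells of about 80 µL received 100 nL stock; the first replicate is given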
Bead autofluor = counter-screen for toxin protease inhibitors: compound fluorescence; actives 3.1% (n = 360,000); fluorescence intensity (no concentration beside the values); compound autofluorescence counterscreen, microsphere flow cytometry; stronger effect = higher value;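 active = at least 3 SD above the mean of all compounds, about 16000 in these data; inconclusive = too few beads counted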;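 also: 100 nL of 1 mM stock went into each well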
Sa RN4220 lethal = S. aureus RN4220 growth inhibition. actives 0.33% (n = 330,000). OD600, 16 h. inhibition, % (concentration not given with the values);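 active = z-score of -3 or lower and OD600 up to 0.18 on both plates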;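 also: plate controls were untreated cells for no effect and reference antibiotic for full effect; stock transfer was 100 nL into about 80 µL; one replicate is shown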
PrP 5UTR inh = inhibition of PrP 5' UTR reporter expression. cell-based PrP 5' UTR mRNA reporter, plate reader. inhibition, % (no concentration beside the values). actives 0.35% (n = 340,000);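 active = every replicate at 50% or more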;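 also: 0 = median of the neutral control wells; tested in H4 reporter cells; numbers are from one replicate; inactives centre near -14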
BJeLR viability = kills HRASV12-expressing BJeLR cells | BJeLR (HRASV12) viability, CellTiter-Glo ATP luminescence, 48 h; reference of the scale not given here | inhibition, % (test concentration not listed) | actives 0.17% (n = 300,000);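 active = replicate mean above 50%; inconclusive = above 50% but judged a plate artefact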;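 also: 50 nL library stock added to about 25 µL; numbers are from one replicate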
Mtb hypoxia rep = inhibitors of hypoxia-regulated fluorescent reporter in Mycobacterium tuberculosis; fluorescence inhibition, % (concentration not given with the values); M. tuberculosis hypoxia-regulated fluorescent reporter, fluorescence; AID 1159583; actives 0.1% (n = 300,000);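 active = 35 to 45% if threefold the growth effect, above 45% if 1.5-fold the growth effect; inactive = the rest, general growth blockers included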;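 also: wells of about 50 µL received 100 nL stock; 0% = vehicle wells and 100% = reference inhibitor wells; whole bacteria with a GFP reporter of the hypoxia response; strong numbers were not always called active; many hits fall short of the cut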
Mtb hypoxia rep growth = further read-out of Mtb hypoxia rep, marked with its call; growth inhibition, %; measured here: M. tuberculosis growth (absorbance);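 0% = vehicle and 100% = reference antibiotic; read after six days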
The depositor's hits bear a star; ? = inconclusive; / = no result given; & = joins results of further samples.

item	SMILES	Sa ugtP lethal	Bead autofluor	Sa RN4220 lethal	PrP 5UTR inh	BJeLR viability	Mtb hypoxia rep	Mtb hypoxia rep growth
1	CC1CCN(C(=O)CSc2nnc(Cc3ccccc3)o2)CC1	9	6030	2.5	-7	4	/	/
2	CN(C)CCNC(=O)C(c1ccccc1)c1ccccc1	7	3949	3.4	-16	16	9	6
3	COc1ccc(S(=O)(=O)N(C)CC2Oc3ccc(NC(=O)Nc4c(C)noc4C)cc3C(=O)N(C(C)CO)CC2C)cc1 (stereo unspecified)	-2&10	/	0.3&6.9	/	/	-5&-4	6&2
4	CCOC(=O)Cn1nnc(-c2ccc([N+](=O)[O-])cc2)n1	-1	4627	-7.0	-23	-1	-10	-4
5	Cc1cc(Cl)c2oc(C(=O)N(CCO)Cc3ccccc3)c(C)c2c1	13	3164	4.9	-26	-1	-4	-10
6	O=C(NCCN1CCNC1=O)C1CCC(=O)N(Cc2cccc(C(F)(F)F)c2)C1 (stereo unspecified)	15	4425	6.5	0	12	9	0
7	N#Cc1c(-c2ccc(F)cc2)cc(-c2ccccc2)nc1SCC(=O)NCC(=O)O	3	4241	1.9	-6	2	7	0
8	O=C(Nc1ccccc1)c1cccn(Cc2ccccc2)c1=O	10	4408	0.7	-70	5	9	12
9	O=C(c1cccc(C(F)(F)F)c1)N1CCC2(CC1)NCCc1[nH]cnc12	-2	/	4.1	-18	-4	12	-2
10	OC1CN=C2C=CC=CN2C1 (stereo unspecified)	-6	2893	-18	-21	3	3	5
11	CCOc1ccc(NC(=O)C2CCN(C(=O)NC3CCCCC3)CC2)cc1	0	4083	-0.3	-9	-10	-9	22
12	CC1CCCN(c2ccc(C(=O)NCc3ccc4c(c3)OCO4)cc2[N+](=O)[O-])C1 (stereo unspecified)	2	2637	-6.4	-17	-1	11	3
13	O=C(CSc1ccc(-c2ccco2)nn1)N1CCCCC1	5	3249	2.9	-18	-13	4	-6
14	CCOC(=O)c1cc(C(C)=NOC(=O)c2ccc(Cl)cc2)on1	3	/	3.5	/	/	1	8
15	CCc1ccc(CN(C)CC(=O)Nc2ccc(S(=O)(=O)N3CCOCC3)cc2)cc1	4	5281	5.7	-13	/	12	9
16	O=C(Nc1nnc(SCc2ccccc2)s1)c1cccc([N+](=O)[O-])c1	2	1969	18	-29	1	-13	-4
17	CCCC[N+]1(C)C2CC(OC(=O)C(CO)c3ccccc3)CC1C1OC12 (stereo unspecified)	6&9	6060	8.6&7.5	-13	2	12&-1	5&4
18	CCOc1ccccc1CNCCOC	1	2327	3.7	-3	5	3	10
19	CC1=C(C(=O)NC2CCCCC2C)C2(CCC(C)CC2)OC1=O (stereo unspecified)	-3	5433	-7.0	-21	-1	13	10
20	CCOc1ccc(S(=O)(=O)Nc2ccc3c(c2)n(C)c(=O)n3C)cc1	3	4329	4.9	-18	13	2	-2
21	CC(C)(C)c1o[nH]c(=O)c1CC(N)C(=O)O (stereo unspecified)	0	4216	7.5	-9	/	6	4
22	Fc1cccc(Cl)c1/C=N/Nc1c(Cl)cncc1Cl	/	2108	/	-2	5	/	/
23	O=S1(=O)N=C(NN=Cc2ccc(Br)o2)c2ccccc21	-5	/	4.0	/	/	-6	-1
24	CN(Cc1cn[nH]c1-c1ccc(-c2ccccc2)cc1)CC1CCOCC1	-3	4550	3.0	-24	14	-5	-4
25	Cc1ccc(NC(=O)CSc2ncn[nH]2)cc1	-2	4210	-3.3	-25	-11	-2	-9
26	CCN(Cc1ccncc1)C(=O)c1ccc(C)c(S(=O)(=O)N2CCCCC2)c1	-2	8747	-2.5	-3	/	-10	2
27	NC(=O)c1oc2ccccc2c1NC(=O)C1CCCCC1	10	6027	2.0	-5	8	8	6
28	COc1oc(-c2ccccc2C)nc1C(F)(F)F	7	3289	13	-5	1	1	1
29	COC(=O)CNC(=O)c1c(-c2c(Cl)cccc2Cl)noc1C	-9	23118*	-0.3	-27	-2	6	12
30	O=C(NCc1ccccc1)c1ccc(N2CCC3(CC2)CC(c2ccc(Cl)cc2)=NO3)c([N+](=O)[O-])c1	-3	3466	10	-24	12	-11	14

New compounds follow.
item	SMILES	Sa ugtP lethal	Bead autofluor	Sa RN4220 lethal	PrP 5UTR inh	BJeLR viability	Mtb hypoxia rep	Mtb hypoxia rep growth
31	CCN1C(=O)C(CC(=O)Nc2cc(C)ccc2C)SC1=Nc1ccc(S(N)(=O)=O)cc1 (stereo unspecified)	-4	10615	2.9	-39	-12	2	8
32	COc1ccc(C(=O)Nc2cccc(-c3nc4ncccc4o3)c2C)cc1OC	2	2040	1.6	-4	-1	/	/
33	O=C(C1COc2ccccc2O1)N1CCN(c2ccccc2)CC1 (stereo unspecified)	9	3760	-0.1	40	-4	/	/
34	CN1CC(Br)C(=O)NC1=O (stereo unspecified)	0	3468	0.9	-12	/	9	11
35	COc1ccc(N(CC(=O)NN=Cc2ccc(OC)cc2OC)S(=O)(=O)c2ccccc2)cc1	16	/	1.2	/	/	2	1
36	Cc1noc(C)c1COc1ncnc2ccccc12	7	3606	-0.6	-12	9	11	19
37	Cc1nn(-c2ccccc2)c(N2CCCC2)c1C=NNC(=S)Nc1ccc(F)cc1	3	/	1.6	/	/	0	10
38	O=c1c2cc(F)ccc2sn1-c1ccccc1	29	2963	5.4	-17	/	5	8
39	COC(=O)CCSCc1cn2cc(Cl)ccc2n1	0	2939	-6.2	-18	-3	15	7
40	Clc1cccc(/C=N\Nc2nccs2)c1	/	4172	/	-33	-15	/	/
41	CN(CC(=O)Nc1cccc(F)c1)C(=O)c1cc(-c2ccco2)nc2ccccc12	2	?	2.0	-2	-2	5	-2
42	Cc1cccc(NC(=O)CCC(=O)NN=Cc2ccc(O)cc2O)c1	3	/	2.3	/	/	7	-9
43	CCn1c(=O)c(C(=O)CN2CCN(Cc3ccc4c(c3)OCO4)CC2)c(N)n(Cc2ccccc2)c1=O	12	5237	4.5	-18	0	-3	0
44	O=C1C2CCN(CC2)C1Cc1ccc(OCCOc2ccccc2)cc1 (stereo unspecified)	-1	2995	-14	-18	34	23	10
45	CN(CCO)c1c2c(nc3cc(-c4cccc(F)c4)nn13)CCCC2	-4	3909	8.0	-54	-8	8	6
46	CC(C)(C)c1ccc(NC(=O)NC2CCCc3ccccc32)cc1 (stereo unspecified)	-1	3607	5.1	-29	1	-2	2
47	COCCCNc1nc(-c2ccncc2)nc2ccccc12	0	3115	0.8	-5	0	/	/
48	CC1SCC(=O)N(CC(=O)Nc2ccc3c(c2)OCCO3)C1=O (stereo unspecified)	7	4469	1.9	-25	1	10	2
49	CCc1cccc(CC)c1NC(=O)c1cccc(N)c1	4	3681	0.6	-20	0	/	/
50	O=C(CCn1c2c(c3ccccc31)CCCC2)NNC(=O)c1ccccc1[N+](=O)[O-]	-4	2144	2.8	-20	-7	2	2
51	N#Cc1ccc(-c2cccs2)nc1SCc1cccnc1	-6	3328	3.3	/	51*	11	7
52	NC(N)=NS(=O)(=O)c1ccc(NC(=S)NC(=O)/C=C/c2ccc(F)cc2)cc1	2	2980	2.1	-13	-1	5	-4
53	C/C(=N\NC(=O)c1ccc(C)cc1)C1C(=O)c2ccccc2C1=O	/	4292	/	-20	6	/	/
54	COc1cc(CC(=O)OCC(=O)Nc2cc(S(=O)(=O)N3CCCC3)ccc2Cl)cc(OC)c1OC	-4	?	3.3	-6	0	3	3
55	N#CCCn1cc(/C=C2\NC(=S)N(c3ccccc3)C2=O)c(-c2ccc(-c3ccccc3)cc2)n1	/	2778	/	-27	-3	/	/
56	O=C(O)C1CC=CCC1C(=O)Nc1cccc(Cl)c1 (stereo unspecified)	2	3526	0.5	-9	-13	/	/
57	O=C(NCCc1ccccc1)c1ccc(NCC2CCCO2)c([N+](=O)[O-])c1 (stereo unspecified)	1	4593	1.0	-13	-16	3	16
58	N#Cc1c(NC(=O)CSc2ncn[nH]2)sc2c1CCCCC2	-10	22487*	2.7	74*	-8	11	4
59	Cc1ccc(NC(=O)CN(C)C(=O)CSc2nnc(NC(C)C)s2)cc1	2	?	2.6	-7	/	-3	-8
60	O=C(O)C(Cc1ccc(O)cc1)N1C(=O)c2c(Cl)c(Cl)c(Cl)c(Cl)c2C1=O (stereo unspecified)	4	/	0.0	-74	-4	4	3

Next entries follow:
item	SMILES	Sa ugtP lethal	Bead autofluor	Sa RN4220 lethal	PrP 5UTR inh	BJeLR viability	Mtb hypoxia rep	Mtb hypoxia rep growth
61	CCOC(=O)c1sc(NC(=O)OC)c(C(=O)OC)c1C	5	3806	4.6	11	-12	14	5
62	COc1ccc(OC)c(-c2cc(C(=O)N3CCOCC3)no2)c1	3	3862	3.3	-17	-1	9	-3
63	CCOC(=O)N1CCN(c2ccccc2O)CC1	3	3974	7.8	-16	1	23	11
64	CCN(CC)S(=O)(=O)c1ccc(NN=Cc2ccc(OC)c(OC)c2OC)nc1	-4	/	0.9	/	/	7	6
65	CN1CCN(c2ccc(NC(=O)c3ccc(Cl)cc3)cn2)CC1	6	3118	1.1	-26	-9	3	2
66	COc1ccc(NC(C)=O)cc1NC(=O)CSc1nnc(C2CCCCC2)n1N	14	6131	0.9	-9	-4	12	-10
67	COc1cc(C)ccc1OCCON1C(=O)CCC1=O	4	3889	2.2	-20	4	10	-3
68	Cc1sc2ncnc(N3CCC(C(=O)Nc4cc(S(C)(=O)=O)ccc4Cl)CC3)c2c1C	-6	/	3.7	-22	-6	4	7
69	O=C(/C=C/c1c(Cl)cccc1Cl)NCc1ccccc1	-2	10412	0.6	-15	-5	-3	13
70	O=C1C=C(c2ccc3ncccc3c2)C[C@@H](c2ccc3c(c2)OCO3)C1	-5	2982	17	-14	/	-5	17
71	COc1ccc(-n2c(NC(=O)c3ccco3)c(C#N)c3nc4ccccc4nc32)cc1	0	3643	11	-23	6	-75	-7
72	CC(=NOCON=C(C)c1ccccc1)c1ccccc1	65	/	-1.0	/	/	4	7
73	COc1cc(C=NNC(=O)c2ccc(-c3ccccc3)cc2)cc(Br)c1O	4	/	19	/	/	-2	-6
74	CN(C)C(=O)Oc1cc(OC(=O)N(C)C)cc(C(O)CNC(C)(C)C)c1 (stereo unspecified)	1&7	5451&5352	3.2&8.2	-8&-3	/	8&-4	15&1
75	COC(=O)c1ccc(NC(=O)C(=O)N2CCN(C(=S)Nc3ccc(OC)cc3)CC2)cc1	-2	2011	3.7	-16	-4	13	12

Along the list, as entered above:
PrP 5UTR inh for nos. 68–75 → -22, -15, -14, -23, /, /, -8&-3, -16

Some of the entries so far, with two lines to a compound.
Screens in order – Sa ugtP lethal | Bead autofluor | Sa RN4220 lethal | PrP 5UTR inh | BJeLR viability | Mtb hypoxia rep | Mtb hypoxia rep growth
8: O=C(Nc1ccccc1)c1cccn(Cc2ccccc2)c1=O
→ 10 | 4408 | 0.7 | -70 | 5 | 9 | 12
9: O=C(c1cccc(C(F)(F)F)c1)N1CCC2(CC1)NCCc1[nH]cnc12
→ -2 | / | 4.1 | -18 | -4 | 12 | -2
10: OC1CN=C2C=CC=CN2C1 (stereo unspecified)
→ -6 | 2893 | -18 | -21 | 3 | 3 | 5
